# Screening data: PubChem BioAssay, National Center for Advancing Translational Sciences (NCATS)
# gsp agonist: activates gsp, the McCune-Albright syndrome mutation. gsp mutant cells, cAMP HTRF, 30 min; control for the full effect not named in the record. Potency, µM (doses to about 76.9 µM), for the others: at the top dose activation (cAMP increase), usual class: activators. hit rate 0.13% among 340,000. AID 624287; active = well fitted activation curve with a large enough effect; inconclusive = small, poorly fitted or top-dose-only effect, or another doubt; inactive = no such curve, though single readings can be large or run the other way; cell line not stated here;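 further: phosphodiesterase inhibitor Ro 20-1724 added with compounds to block cAMP breakdown; potency means the concentration at half of the fitted maximal effect; nearly all actives have a fitted effect of over 60% in size; about a fifth of the inactives were tested at one dose only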
#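 Cells in DMEM/10% FBS with G418 were pretreated with compounds in DMSO plus […] (300 uM stock) for 30 min at 37C. cAMP was measured by HTRF (cAMP-d2 plus anti-cAMP antibody-K) after 30 min at room temperature.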
# gsp antagonist: antagonists of gsp mutant (McCune-Albright syndrome) | gsp-mutant cells, cAMP HTRF, 30 min; control for the full effect not named in the record | Potency, µM (titrated, usually from 76.9 µM), for the others: at the highest dose activity change, negative = inhibition, hits mostly inhibitors | hit rate 0.4% among 340,000 | AID 624288; active = falling curve of any shape with a large fitted effect; inconclusive = falling curve, mostly with a smaller effect; inactive = flat or rising curve; cell line not stated here;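 further: intracellular cAMP measured with PDE inhibitor Ro 20-1724 present during compound exposure; potency means the concentration at half of the fitted maximal effect; on the % scale 0 is the no-effect control and ±100 the full control effect; nearly all actives have a fitted effect of over 65% in size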
#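 HTRF cAMP measurement after 30 min RT detection following 30 min, 37C compound treatment alongside […] (added as 300 uM solution) in G418-selected cells seeded at 2000/well and grown 16–24 h.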
# D2 potentiator: human D2 receptor positive allosteric modulation; P14416; potentiation, % (test concentration not listed); DiscoveRx D2 beta-arrestin cells, luminescence, 90 min; 100% = 57 uM dopamine signal; hit rate 0.23% among 360,000; AID 624464; active = potentiation of 50% or more; inconclusive = 30% to 50%; inactive = 30% or less;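 further: compound concentration not given in the record; tested on top of an EC20 dose of dopamine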
#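 D2 cells co-treated with compound plus 50 nM dopamine (EC20) for 90 min at 37 deg C to detect potentiation. Beta-arrestin recruitment was read as enzyme-fragment luminescence after 1 h at ambient temperature. Full response was set by 57 uM dopamine.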
# TRPV1 potentiator: potentiators of human vanilloid receptor 1 (TRPV1); hit rate 0.02% among 320,000; potentiation, % at 8.33 µM; TRPV1-expressing cells, Fluo-8 calcium influx, capsaicin EC20 potentiation; host cell line not named in the record; control for the full effect not named in the record; AID 540277; active means potentiation above 80%; inconclusive means 30% to 80%; inactive means below 30%; further: 0% is about no effect
# Target sequence (Q8NER1 whole entry, looked up): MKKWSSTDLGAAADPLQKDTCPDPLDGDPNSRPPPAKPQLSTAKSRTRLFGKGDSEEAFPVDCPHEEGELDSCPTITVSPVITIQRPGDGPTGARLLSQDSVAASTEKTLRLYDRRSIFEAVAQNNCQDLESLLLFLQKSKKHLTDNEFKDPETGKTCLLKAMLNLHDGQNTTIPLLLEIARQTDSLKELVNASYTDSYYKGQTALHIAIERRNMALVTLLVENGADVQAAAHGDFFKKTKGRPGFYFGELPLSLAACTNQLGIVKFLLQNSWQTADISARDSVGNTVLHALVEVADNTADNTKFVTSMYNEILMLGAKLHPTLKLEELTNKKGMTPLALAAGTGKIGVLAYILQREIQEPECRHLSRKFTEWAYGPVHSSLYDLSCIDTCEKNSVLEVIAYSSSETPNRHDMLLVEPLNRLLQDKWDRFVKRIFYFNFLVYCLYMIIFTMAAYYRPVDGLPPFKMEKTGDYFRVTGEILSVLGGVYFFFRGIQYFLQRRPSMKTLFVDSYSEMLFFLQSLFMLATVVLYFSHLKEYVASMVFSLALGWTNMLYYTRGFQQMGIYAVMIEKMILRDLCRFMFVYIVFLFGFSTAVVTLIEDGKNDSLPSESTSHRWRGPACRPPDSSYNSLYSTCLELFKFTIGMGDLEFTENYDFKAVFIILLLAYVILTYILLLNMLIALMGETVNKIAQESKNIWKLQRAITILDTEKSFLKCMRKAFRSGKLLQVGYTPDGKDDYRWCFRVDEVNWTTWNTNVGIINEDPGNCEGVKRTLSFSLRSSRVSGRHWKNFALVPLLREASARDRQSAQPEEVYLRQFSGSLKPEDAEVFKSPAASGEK
#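 Cells expressing TRPV1 were dye-loaded with Fluo-8 and read kinetically: 10 s baseline, 3 min after compound (agonist portion), then 2 min after EC20 capsaicin (allosteric enhancer portion). Calcium-bound dye fluorescence at 480/520 nm.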
# ClpP mod: qHTS Assay for Activators of ClpP | ATP-dependent Clp protease proteolytic subunit (Bacillus subtilis (strain 168)), P80244 | purified B. subtilis ClpP, FRET peptide cleavage, 20 min | Potency, µM (highest dose often 57.5 µM), for the others: top-dose activity change, negative = active | hit rate 1.9% among 340,000 | AID 651965, 2013; active = well fitted falling curve with a large enough effect; inconclusive = small, poorly fitted or top-dose-only effect; inactive = no such curve, though single readings can be large or run the other way; further: potency means the concentration at half of the fitted maximal effect; the source files actives as falling curves though it sought activators and does not explain the sign; nearly all actives have a fitted effect of over 65% in size; many hits overshoot -100%
# Target sequence (P80244 whole entry, looked up): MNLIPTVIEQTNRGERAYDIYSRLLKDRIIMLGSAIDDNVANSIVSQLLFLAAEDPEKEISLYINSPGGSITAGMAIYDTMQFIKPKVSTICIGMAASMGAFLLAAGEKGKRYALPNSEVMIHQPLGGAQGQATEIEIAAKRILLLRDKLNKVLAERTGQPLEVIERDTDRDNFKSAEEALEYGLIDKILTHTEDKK
#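 Purified B. subtilis ClpP, 10 microg/mL final in Tris/HCl pH8 with KCl, BSA, glycerol and Tween-20, cleaved an Abz/nitrotyrosine-quenched decapeptide. Fluorescence (ex 320, em 430) was read at 0 and 20 min at room temperature. Delta was normalized to 5.8 microM ADEP and DMSO/no-enzyme controls.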
# Menin MLL FP FL: displaces fluorescein MLL peptide from human menin. Fluorescence polarization, fluorescein-MLL peptide displacement from menin. FP activity change, % at 61.4 µM. 290,000 tested, under 10 active. AID 1766; inconclusive = falling polarisation curve, or a change in total fluorescence; inactive = total fluorescence flat and polarisation flat or rising; no compound was filed as active; the % refers to the polarisation; negative = inhibition;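 further: % of control where 0% means no effect; inhibitors lower the polarisation; unlabelled MLL peptide was the positive control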
# Sfp PPTase inh: blocks B. subtilis Sfp PPTase activity; Potency, µM, inactives show max response, negative = inhibition, hits mostly inhibitors; hit rate 3.5% among 310,000; AID 1490; Q9F4F7; Biochemical Sfp PPTase activity, qHTS; active means well fitted inhibition curve with a large enough effect; inconclusive means small, poorly fitted or top-dose-only effect, or another doubt; inactive means no such curve, though single readings can be large or run the other way;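 further: the enzyme is Sfp with the accession as filed and its product quenches rhodamine fluorescence; potency means the concentration at half of the fitted maximal effect; 0% = enzyme reaction without inhibitor and -100% = no enzyme wells; top concentration of the series not given in the record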
#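 Compounds were incubated with enzyme (final 15 nM) for 15 min at room temperature before substrate addition started the reaction. Fluorescence at 525 nm excitation, 598 nm emission was recorded immediately and after 30 minutes.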
# * hit, by the source's call; ? = inconclusive; . = no result given; & = joins results of further samples; [ ] = dose if it differs, or a comment. Rows were taken by chance. About 5.1% of those tested had a hit in this group.
# Values in the order – gsp agonist	gsp antagonist	D2 potentiator	TRPV1 potentiator	ClpP mod	Menin MLL FP FL	Sfp PPTase inh
1. CC(C)(C)c1nc(NCC2CCCO2)c2nnn(Cc3ccccc3)c2n1 (stereo not given)
    43.2%	-4.5%	-4.8	-1.1	-0.1%	8.7	16.0%
2. CC(=O)c1cccc(Nc2nc(-c3cccc([N+](=O)[O-])c3)cs2)c1
    7.0%[15.4 µM]	-5.7%	2.5	-6.2	-2.1%	0.0	-19.8%
3. CCCN(CCC)S(=O)(=O)c1ccc(NS(=O)(=O)c2ccc(F)cc2)cc1
    22.7%	-15.2%	-7.8	1.2	6.7%	-0.7	16.1%
4. CC(C)N(CCCNC(=O)c1ccc(CS(=O)(=O)c2c(Cl)cccc2Cl)o1)Cc1ccccc1
    -13.1%	6.8%	-25.2	1.1	-1.8%	1.2	17.1%
5. O=C(C1=C(O)C(=O)N(CCN2CCOCC2)C1c1ccccn1)c1cccs1 (stereo not given)
    15.1%	1.2%	19.7	6.6	-1.2%	2.3	?
6. O=C(Nc1nncs1)c1c(F)c(F)c(F)c(F)c1F
    -0.6%	39.8µM*	13.4	3.8	0.4%	0.3	6.3%
7. CC(C)Oc1ccc(CCc2nnc(SCC(=O)O)n2-c2ccccc2)cc1
    1.4%	-20.1%	-3.4	4.4	.	-3.6	25.7%
8. C[C@H](NS(=O)(=O)c1ccc(Cl)c(Cl)c1)C(=O)OCc1cc(=O)n2cc(Br)ccc2n1
    11.8%	?	0.1	0.0	-1.4%	8.4	-2.4%
9. Cc1ccc(/C=C2/SC(=S)N(CCC(=O)N3CCN(c4ccccc4)CC3)C2=O)cc1
    .	.	.	-10.7	.	3.7	-14.6%
10. CC(Sc1ccsc1[N+](=O)[O-])C(=O)NCc1ccccc1 (stereo not given)
    .	.	.	-2.8	.	-4.3	10.0%
11. Cn1ccnc1-c1nnn(-c2ccc(Cl)c(Cl)c2)n1
    .	10.0%	-4.6	.	-2.9%	.	.
12. O=C(NCCCO)c1ccc2[nH]c3c(c2c1)CCCC3
    -9.0%	1.8%	1.2	3.6	-0.2%	-3.0	15.2%
13. CC(C)c1ccc(/C=c2\sc3n(c2=O)C(N)=C(C#N)C(c2ccc(C(C)C)cc2)C=3C(N)=O)cc1 (stereo not given)
    3.4%[15.4 µM]	-3.6%	0.1	.	.	.	.
14. O=C(CCn1c(=O)c2cccn2c2cccnc21)N1CCN(c2cccc(Cl)c2)CC1
    ?	-20.8%	-11.0	19.8	-7.9%&-27.6%	.	7.3%
15. Cc1nc(NC(=O)C2CCCCC2C(=O)O)sc1C (stereo not given)
    ?	5.1%	-13.0	-3.4	-1.4%	-1.7	23.1%
16. Cc1ccc(S(=O)(=O)N2CCN(C(=O)COC(=O)c3cncc(Br)c3)CC2)c(C)c1
    -1.4%[15.4 µM]	9.5%	5.3	.	1.0%	.	.
17. CN(Cc1nc2ccccc2c(=O)[nH]1)c1ccccc1
    ?	7.2%	4.4	4.6	-2.4%	-2.0	16.9%
18. Cc1ccc(-c2cc(C(=O)Nc3ccc(S(=O)(=O)Nc4onc(C)c4C)cc3)c3ccccc3n2)cc1
    -1.3%[15.4 µM]	.	-6.9	0.7	.	0.1	21.2%
19. CC(C)c1cc(NC(=O)CSc2nnc(-c3ccccc3F)n2C)on1
    -13.1%	-9.4%	-3.3	5.7	1.2%	1.7	6.6%
20. Cc1nc2ccc(S(=O)(=O)NC(C(=O)NC3CCCC3)C(C)C)cc2s1 (stereo not given)
    -7.5%	7.3%	2.5	-0.1	-2.3%	2.6	14.1%
21. COCCNC(=S)N(CCc1c(C)[nH]c2ccc(C)cc12)Cc1cc(OC)c(OC)c(OC)c1
    1.5%	-16.2%	4.0	-8.3	-4.1%	4.6	-9.1%
22. O=C(Nc1cc([N+](=O)[O-])ccc1O)c1ccc2c(c1)C(=O)N(Cc1ccco1)C2=O
    31.2%	?	-21.6	-2.1	1.5%	.	5.0%
23. Cc1ccc(-c2nn(C)c(=O)c3ccccc23)cc1CNS(C)(=O)=O
    -1.7%	-4.3%	-10.3	12.1	-4.8%	0.8	-13.6%
24. CC(C)Oc1ccc(C(=O)CCN2CCCCC2)cc1
    -29.8%	11.2%	-19.4	-2.9	-0.5%	-0.9	-20.2%
25. Cc1ccccc1P(=O)(CO)c1ccccc1C
    17.8%	0.3%	-7.4	13.8	-3.5%	-1.3	7.8%
26. Cc1ccc(N2CC(C(=O)Nc3ccncc3)CC2=O)cc1 (stereo not given)
    1.9%	7.5%	-7.8	-1.4	-0.6%	0.9	3.1%
27. Cc1cc(=O)oc2c1c(C)nn2-c1cccc(Cl)c1
    ?	-7.4%	0.3	-6.9	.	2.2	23.8%
28. CC(=O)Nc1c([N+](=O)[O-])cc2[nH]c(=O)[nH]c2c1[N+](=O)[O-]
    -12.2%[15.4 µM]	10.2%	1.0	-8.7	.	2.3	20µM*
29. CCN(CC)S(=O)(=O)c1cccc(-c2nnc(SCC(=O)c3cc(C)n(C4CC4)c3C)o2)c1
    4.5%	-14.0%	11.0	24.9	-2.1%	2.1	3.5%
30. CCOC(=O)N1CCC(NC(=O)C(NS(=O)(=O)c2cccc3nsnc23)c2ccccc2)CC1 (stereo not given)
    -27.9%	-15.1%	-6.1	6.7	0.4%	-2.9	15.3%

# A second format for part of the listing above.
24: CC(C)Oc1ccc(C(=O)CCN2CCCCC2)cc1
  gsp agonist: -29.8%
  gsp antagonist: 11.2%
  D2 potentiator: -19.4
  TRPV1 potentiator: -2.9
  ClpP mod: -0.5%
  Menin MLL FP FL: -0.9
  Sfp PPTase inh: -20.2%

9: Cc1ccc(/C=C2/SC(=S)N(CCC(=O)N3CCN(c4ccccc4)CC3)C2=O)cc1
  gsp agonist: .
  gsp antagonist: .
  D2 potentiator: .
  TRPV1 potentiator: -10.7
  ClpP mod: .
  Menin MLL FP FL: 3.7
  Sfp PPTase inh: -14.6%

# Sorted by molar mass (low to high): 13 of the compounds above.
# Values in the order – gsp agonist	gsp antagonist	D2 potentiator	TRPV1 potentiator	ClpP mod	Menin MLL FP FL	Sfp PPTase inh
25. Cc1ccccc1P(=O)(CO)c1ccccc1C
    17.8%	0.3%	-7.4	13.8	-3.5%	-1.3	7.8%
17. CN(Cc1nc2ccccc2c(=O)[nH]1)c1ccccc1
    ?	7.2%	4.4	4.6	-2.4%	-2.0	16.9%
12. O=C(NCCCO)c1ccc2[nH]c3c(c2c1)CCCC3
    -9.0%	1.8%	1.2	3.6	-0.2%	-3.0	15.2%
27. Cc1cc(=O)oc2c1c(C)nn2-c1cccc(Cl)c1
    ?	-7.4%	0.3	-6.9	.	2.2	23.8%
15. Cc1nc(NC(=O)C2CCCCC2C(=O)O)sc1C (stereo not given)
    ?	5.1%	-13.0	-3.4	-1.4%	-1.7	23.1%
2. CC(=O)c1cccc(Nc2nc(-c3cccc([N+](=O)[O-])c3)cs2)c1
    7.0%[15.4 µM]	-5.7%	2.5	-6.2	-2.1%	0.0	-19.8%
19. CC(C)c1cc(NC(=O)CSc2nnc(-c3ccccc3F)n2C)on1
    -13.1%	-9.4%	-3.3	5.7	1.2%	1.7	6.6%
20. Cc1nc2ccc(S(=O)(=O)NC(C(=O)NC3CCCC3)C(C)C)cc2s1 (stereo not given)
    -7.5%	7.3%	2.5	-0.1	-2.3%	2.6	14.1%
7. CC(C)Oc1ccc(CCc2nnc(SCC(=O)O)n2-c2ccccc2)cc1
    1.4%	-20.1%	-3.4	4.4	.	-3.6	25.7%
9. Cc1ccc(/C=C2/SC(=S)N(CCC(=O)N3CCN(c4ccccc4)CC3)C2=O)cc1
    .	.	.	-10.7	.	3.7	-14.6%
13. CC(C)c1ccc(/C=c2\sc3n(c2=O)C(N)=C(C#N)C(c2ccc(C(C)C)cc2)C=3C(N)=O)cc1 (stereo not given)
    3.4%[15.4 µM]	-3.6%	0.1	.	.	.	.
29. CCN(CC)S(=O)(=O)c1cccc(-c2nnc(SCC(=O)c3cc(C)n(C4CC4)c3C)o2)c1
    4.5%	-14.0%	11.0	24.9	-2.1%	2.1	3.5%
30. CCOC(=O)N1CCC(NC(=O)C(NS(=O)(=O)c2cccc3nsnc23)c2ccccc2)CC1 (stereo not given)
    -27.9%	-15.1%	-6.1	6.7	0.4%	-2.9	15.3%

# New compounds follow.
# Values in the order – gsp agonist	gsp antagonist	D2 potentiator	TRPV1 potentiator	ClpP mod	Menin MLL FP FL	Sfp PPTase inh
31. Cc1ccc(C)n1-c1ccc(N(C)C)cc1
    -24.8%[15.4 µM]	?	-7.5	-19.9	-0.8%	.	39.8µM*
32. CCC(C(=O)N1CCN(c2ccccc2OC)CC1)c1ccccc1 (stereo not given)
    2.0%	0.3%	-6.8	-17.8	-1.1%	-0.8	-8.4%
33. COc1ccc(N(CC(=O)N/N=C/c2cc3ccc(OC)cc3nc2Cl)S(=O)(=O)c2ccccc2)cc1
    .	.	.	-8.6	.	2.9	4.9%
34. COc1cc(C(=O)Oc2cccc(/C=N/NC(=O)c3cc(C)[nH]n3)c2)cc(OC)c1OC
    -10.6%	-17.7%	15.8	-5.0	.	0.2	10.6%
35. O=C(O)c1cccc(C(=O)c2cccc(C(=O)O)c2)c1
    3.3%	1.2%	0.8	5.9	.	2.6	7.9%
